GIRK2 act: opens human GIRK2 potassium channels. 63,000 tested, 0.05% active. HEK293-GIRK2 thallium flux, Thallos fluorescence. calls only for hits at 25 µM. AID 1259325;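 active = among the strongest 0.2% of first-round signals and kept after retests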;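 note: first round at about 10 µM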
Target sequence (P48051 whole entry, looked up): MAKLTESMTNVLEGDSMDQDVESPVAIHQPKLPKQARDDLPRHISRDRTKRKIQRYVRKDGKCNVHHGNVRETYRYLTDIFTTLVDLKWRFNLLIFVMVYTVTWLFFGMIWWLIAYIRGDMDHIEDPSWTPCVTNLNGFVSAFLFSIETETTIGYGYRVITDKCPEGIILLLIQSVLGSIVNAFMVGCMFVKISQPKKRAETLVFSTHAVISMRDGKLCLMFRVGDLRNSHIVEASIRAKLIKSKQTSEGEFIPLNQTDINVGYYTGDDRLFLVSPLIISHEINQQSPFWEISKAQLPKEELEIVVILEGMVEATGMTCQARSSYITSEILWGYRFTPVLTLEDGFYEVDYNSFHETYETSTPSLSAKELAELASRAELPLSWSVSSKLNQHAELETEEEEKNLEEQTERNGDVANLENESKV
Calls only. The list is partial (hit frequency here may not be typical).

What do the screens show for `COCCNC(=O)CCc1csc(NC(=O)c2ccc(Cl)cc2)n1`?
GIRK2 act: inactive

What do the screens show for `COC(=O)c1sc2ccccc2c1S(=O)(=O)N1CCN(c2ccc(C(C)=O)cc2)CC1`?
GIRK2 act: inactive

What do the screens show for `Cn1cnnc1SCCNC(=O)Cc1noc2ccccc12`?
GIRK2 act: inactive

Results for O=C(Cn1nc2c(c1NC(=O)c1ccc([N+](=O)[O-])o1)CSC2)NCc1ccccc1 ?
GIRK2 act: inactive

How did Cc1cc(C(=O)NCC2(O)CCOc3ccccc32)no1 (centres undefined) do in these assays?
GIRK2 act: inactive

What do the screens show for `COc1ccc(OC)c2sc(NC(=O)c3cc(C)no3)nc12`?
GIRK2 act: inactive

What do the screens show for `CCOc1ccc(-c2ccc(N3CCN(C(=O)Nc4ccc(C)c(F)c4)CC3)nn2)cc1`?
GIRK2 act: inactive

What do the screens show for `COC(=O)Nc1nc(Cc2nc(-c3cccs3)no2)cs1`?
GIRK2 act: inactive

Results for C=C(C)COc1ccc(-c2ncncc2-c2ccccc2OC)c(O)c1 ?
GIRK2 act: inactive

Results for CCC(=O)NCc1nc(COc2ccc(OC)cc2)no1 ?
GIRK2 act: inactive

What do the screens show for `O=C(CN1CCC(Cn2cnc3ccccc32)CC1)c1ccc(F)c(F)c1`?
GIRK2 act: inactive

What do the screens show for `COc1ccc(S(=O)(=O)Cc2nc(-c3cccc(Cl)c3)no2)cc1`?
GIRK2 act: inactive

What do the screens show for `CCOC(=O)c1ccc(NC(=O)Cn2c(=O)c3ccccc3c3ccccc3c2=O)cc1`?
GIRK2 act: inactive

Results for COc1cccc(-n2c(SCC(N)=O)nc3ncccc3c2=O)c1 ?
GIRK2 act: inactive

What do the screens show for `COc1ccc(N2CCCn3c2nc2c3c(=O)n(Cc3ccccc3F)c(=O)n2C)c(OC)c1`?
GIRK2 act: inactive

How did CC(C)c1ccc(NC(=O)c2cc(=O)c(OCc3ccccc3)co2)cc1 do in these assays?
GIRK2 act: inactive

How did Cc1cc2ncn(CC3CCN(CC(=O)NCc4ccc(F)cc4)CC3)c2cc1C do in these assays?
GIRK2 act: inactive

How did COc1ccc(S(=O)(=O)N2CCN(c3ccc(Nc4ccccn4)nn3)CC2)cc1C do in these assays?
GIRK2 act: inactive

How did Cc1ccc(NC(=O)CSc2nnc3ccc4ccccc4n23)cc1 do in these assays?
GIRK2 act: inactive

Results for Cc1cccc(-c2csc3c(=O)[nH]c(N4CCC(C(=O)NCc5cccc(Cl)c5)CC4)nc23)c1 ?
GIRK2 act: inactive

How did COc1ccccc1OCC(=O)NCC(O)c1ccoc1 (centres undefined) do in these assays?
GIRK2 act: inactive

How did Cc1nccn1-c1ccc(=O)n(CCNC(=O)Cn2cnc(C(C)C)cc2=O)n1 do in these assays?
GIRK2 act: inactive

What do the screens show for `COc1cccc(N2CC(C(=O)N3CCC(CSc4nccn4C)CC3)CC2=O)c1` (centres undefined)?
GIRK2 act: inactive

What do the screens show for `COC(=O)c1sc2cccc(F)c2c1S(=O)(=O)N1CCN(c2ccc(C(C)=O)cc2)CC1`?
GIRK2 act: inactive

What do the screens show for `CCCS(=O)(=O)N1CCc2ccc(NS(=O)(=O)c3ccc(C(=O)OC)cc3)cc2C1`?
GIRK2 act: inactive

What do the screens show for `CCc1nnc(C2CCN(C(=O)C(CC)c3ccccc3)CC2)s1` (centres undefined)?
GIRK2 act: inactive

What do the screens show for `Cc1ccc(Oc2cccc(C(=O)Nc3cnc(N4CCOCC4)nc3)c2)nn1`?
GIRK2 act: inactive

Results for Cc1ccccc1NC(=O)C1(c2cccs2)CCCC1 ?
GIRK2 act: inactive

Results for COC(=O)N1CCc2ccc(F)cc2C1C(=O)Nc1nc2c(s1)CCCC2 (centres undefined) ?
GIRK2 act: inactive

What do the screens show for `CSc1ccc(CNC(=O)c2cn(-c3ccc(Cl)cc3)nn2)cc1`?
GIRK2 act: inactive

How did Cc1ccc(C(=O)Oc2c(S(=O)(=O)c3ccc(C)cc3)c(C)nn2C(C)(C)C)cc1 do in these assays?
GIRK2 act: inactive

Results for CC1(C)C2CCC1(CS(=O)(=O)N1CCN=C1c1ccccc1)C(=O)C2 (centres undefined) ?
GIRK2 act: inactive

How did COc1ccc(-c2ccc(N3CCN(S(C)(=O)=O)CC3)nn2)cc1OC do in these assays?
GIRK2 act: inactive

How did COCCNC(=O)c1nnn(-c2ccc(NC(=O)c3cc4ccccc4o3)cc2)n1 do in these assays?
GIRK2 act: inactive

Results for COc1ccc(/C=C/C(=O)Nc2ccccc2C(C)C)cc1OC ?
GIRK2 act: inactive

How did COc1ccc(NC(=O)CCCCCn2cnc3ccccc3c2=O)cc1 do in these assays?
GIRK2 act: inactive

Results for O=C(NCC1(c2ccc(F)cc2)CCOCC1)c1cc(C2CC2)on1 ?
GIRK2 act: inactive

Results for O=C(NCCn1ncccc1=O)c1ccccc1Oc1ccccc1 ?
GIRK2 act: inactive

How did COc1ccccc1CCNC(=O)C(C)n1nc(C)ccc1=O (centres undefined) do in these assays?
GIRK2 act: inactive

Results for CCCNC(=O)CCc1csc(NC(=O)c2ccc(=O)[nH]c2)n1 ?
GIRK2 act: inactive

Results for O=C(Nc1nnc(-c2ccsc2)o1)c1cccc(-n2cnnn2)c1 ?
GIRK2 act: inactive

How did COCCCNC(=O)CSc1nc(-c2ccc(OC)c(OC)c2)[nH]c1-c1ccc(F)cc1 do in these assays?
GIRK2 act: inactive

What do the screens show for `COc1ccc(C2=NC3(CCN(CC(=O)Nc4ccc(OC)c(OC)c4)CC3)NC2=O)cc1`?
GIRK2 act: inactive

What do the screens show for `O=C(Nc1ccc(-n2nnc(C(=O)N3CCCC3)n2)cc1)c1cccc(C(F)(F)F)c1`?
GIRK2 act: inactive

How did COc1ccc(-c2cc3c(=O)n(CC(=O)NCc4ccccc4)ccn3n2)cc1OC do in these assays?
GIRK2 act: inactive

How did CCCCN1CC(c2nc3ccccc3n2Cc2cccc(Cl)c2)CC1=O (centres undefined) do in these assays?
GIRK2 act: inactive

How did CN/C(=C\[N+](=O)[O-])NCCSCc1ccc(CN(C)C)o1 do in these assays?
GIRK2 act: inactive

What do the screens show for `O=S(=O)(c1ccc(OC(F)(F)F)cc1)N1CC(c2nc(-c3ncccn3)no2)C1`?
GIRK2 act: inactive

How did COc1cc2c(cc1OC)CN(S(=O)(=O)CCCNC(=O)c1ccco1)CC2 do in these assays?
GIRK2 act: inactive

Results for O=C(NCC(O)(c1ccccc1)C1CC1)Nc1ccccc1C(F)(F)F (centres undefined) ?
GIRK2 act: inactive

What do the screens show for `CCCCN1CC(c2nc3ccccc3n2CCOc2ccc(OC)cc2)CC1=O` (centres undefined)?
GIRK2 act: inactive

How did COc1ccc(Cl)cc1C(=O)NCCc1csc(-n2nc(C)cc2C)n1 do in these assays?
GIRK2 act: inactive

How did O=C(c1ccco1)N1CCN(C(=O)C2CCN(c3ncnc4c3oc3ccccc34)CC2)CC1 do in these assays?
GIRK2 act: inactive

Results for COC(=O)c1ccc(S(=O)(=O)NCCC(O)c2ccoc2)cc1 (centres undefined) ?
GIRK2 act: inactive

How did O=C(CSc1nc2ccccc2c2ccccc12)NCc1ccco1 do in these assays?
GIRK2 act: inactive

How did Cc1nc(NC(=O)C2CCN(c3ccc(=O)n(C)n3)CC2)sc1C do in these assays?
GIRK2 act: inactive

Results for Cn1c(=O)[nH]c(=O)c2c1nc(NCCO)n2CC(O)COc1ccc(Cl)cc1Cl (centres undefined) ?
GIRK2 act: inactive

Results for CCC1CCCCN1S(=O)(=O)c1ccc2[nH]c(=O)cc(C(=O)NCCC3=CCCCC3)c2c1 (centres undefined) ?
GIRK2 act: inactive

Results for COc1cccc2cc(C(=O)NCC3CCN(C(=O)c4cccnc4)CC3)oc12 ?
GIRK2 act: inactive

Results for COc1ccc2c(c1)c(CC(=O)NCCOC(=O)CCC(=O)O)c(C)n2C(=O)c1ccc(Cl)cc1 ?
GIRK2 act: inactive

An excerpt from the list above, for reference:
Results for COc1cccc2cc(C(=O)NCC3CCN(C(=O)c4cccnc4)CC3)oc12 ?
GIRK2 act: inactive

Results for COc1ccc2c(c1)c(CC(=O)NCCOC(=O)CCC(=O)O)c(C)n2C(=O)c1ccc(Cl)cc1 ?
GIRK2 act: inactive

Additional structures follow.
How did Cn1cccc1C(CNC(=O)Nc1cccc(C(F)(F)F)c1)N1CCCC1 (centres undefined) do in these assays?
GIRK2 act: inactive

How did COC(=O)CSc1nc2c(c(=O)[nH]c(=O)n2C)n1C/C=C(/C)Cl do in these assays?
GIRK2 act: inactive

What do the screens show for `Cc1cccc(CS(=O)(=O)N2CC(c3nc(C4CC4)no3)C2)c1`?
GIRK2 act: inactive

How did Cc1ccc(NC(=O)CSc2cc(C)nc(-c3ccc(F)cc3)n2)c(F)c1 do in these assays?
GIRK2 act: inactive

What do the screens show for `Cc1ccc(C(=O)Nc2ccccn2)cc1S(=O)(=O)N1CCCCCC1`?
GIRK2 act: inactive

How did CCOC(=O)c1cn[nH]c1S(=O)(=O)Nc1cccc(CC)c1 do in these assays?
GIRK2 act: inactive

How did COc1ccc(Cl)cc1NC(=O)C(=O)NCC(O)c1ccc(C)o1 (centres undefined) do in these assays?
GIRK2 act: inactive

How did COc1ccc(N2C(=O)C3N=NN(CC(=O)NCc4ccccc4)C3C2=O)cc1Cl (centres undefined) do in these assays?
GIRK2 act: inactive

How did O=C(Cn1nc2c(N3CCN(c4ccccc4)CC3)nccn2c1=O)Nc1ccc(F)c(Cl)c1 do in these assays?
GIRK2 act: inactive

How did Cc1cc(NC(=O)C2CCN(C(=O)/C=C/c3cccs3)CC2)no1 do in these assays?
GIRK2 act: inactive

What do the screens show for `O=C(c1ccccc1)N1CCCc2cc(NS(=O)(=O)c3cccc(Cl)c3)ccc21`?
GIRK2 act: inactive

What do the screens show for `COc1ccc(OC)c(COCC(O)CN2CCN(c3cccc(C(F)(F)F)c3)CC2)c1` (centres undefined)?
GIRK2 act: inactive

Results for O=C(NCc1ccc(Br)cc1)c1csc(C(=O)N2CCCC2)n1 ?
GIRK2 act: inactive

Results for COc1cc(NC(=O)N2CCC(Cn3ccnc3C(C)C)CC2)cc(OC)c1OC ?
GIRK2 act: inactive

How did CCC(C(=O)NCc1cc(-c2ccccn2)n(C)n1)c1ccccc1 (centres undefined) do in these assays?
GIRK2 act: inactive

Results for COc1ccc(CN2C(=S)NC3CC2(C)Oc2ccccc23)cc1 (centres undefined) ?
GIRK2 act: inactive

Results for O=C(c1cc(Br)ccc1Cl)N1CC(c2nc3ccccc3[nH]2)C1 ?
GIRK2 act: inactive

What do the screens show for `COc1ccc(Nc2ncnc3[nH]ncc23)cc1Cl`?
GIRK2 act: inactive

Results for CCOC(=O)Cn1c(=O)c2c(nc3n(-c4ccccc4C)c(C)cn23)n(C)c1=O ?
GIRK2 act: inactive

How did O=C(NCC1CCN(Cc2ccccc2)CC1)C(=O)NC1CCCCCC1 do in these assays?
GIRK2 act: inactive

What do the screens show for `COc1ccc(CC(=O)Nc2cc(C)nn2-c2nc(-c3ccc(C)cc3)cs2)cc1OC`?
GIRK2 act: inactive

What do the screens show for `COc1ccc(NC(=O)CSc2cc(-n3nc(C)cc3C)ncn2)cc1`?
GIRK2 act: inactive

Results for Cc1nc2c(ccc3nc(NC(=O)NCc4cccs4)sc32)s1 ?
GIRK2 act: inactive

What do the screens show for `Cc1noc(-c2cccn(Cc3ccc(C(C)(C)C)cc3)c2=O)n1`?
GIRK2 act: inactive

What do the screens show for `CCN(C1CCCCC1)S(=O)(=O)c1ccc(OC)c(OC)c1`?
GIRK2 act: inactive

What do the screens show for `COc1ccc(C(=O)Nc2nnc(-c3cc4cccc(OC)c4o3)o2)cc1OC`?
GIRK2 act: inactive

How did Cc1ccc(S(=O)(=O)c2cn(Cc3ccccc3)c3ccc(F)cc3c2=O)cc1 do in these assays?
GIRK2 act: inactive

What do the screens show for `CC(=O)Nc1cccc(Nc2c(C(=O)N3CCCCCC3)cnc3nc(C)ccc23)c1`?
GIRK2 act: inactive

How did COc1cc(NC(=O)CN2CCC3(CC2)N=C(c2ccc(C)cc2)C(=O)N3)cc(OC)c1 do in these assays?
GIRK2 act: inactive

How did COc1ccc(-c2noc(-c3ccc(=O)n(CC(=O)Nc4cc(OC)cc(OC)c4)c3)n2)cc1 do in these assays?
GIRK2 act: inactive

Results for COC(=O)c1ccc(C(=O)OC)c(NC(=O)c2ccc(-n3cnnn3)cc2)c1 ?
GIRK2 act: inactive

What do the screens show for `CC(C)NCC(O)c1cc(O)cc(O)c1` (centres undefined)?
GIRK2 act: inactive

Results for Cc1ccc(NC(=O)CN2N=NC3C(=O)N(c4ccc(F)c(F)c4)C(=O)C32)cc1 (centres undefined) ?
GIRK2 act: inactive

What do the screens show for `Cc1ccc(NC(=O)c2c(O)c3c(C)c(C(=O)N(C)C)sc3[nH]c2=O)cc1C`?
GIRK2 act: inactive

In the list so far, 10 have an aryl thioether with sulfur outside any ring:
What do the screens show for `Cn1cnnc1SCCNC(=O)Cc1noc2ccccc12`?
GIRK2 act: inactive

Results for COc1cccc(-n2c(SCC(N)=O)nc3ncccc3c2=O)c1 ?
GIRK2 act: inactive

How did Cc1ccc(NC(=O)CSc2nnc3ccc4ccccc4n23)cc1 do in these assays?
GIRK2 act: inactive

What do the screens show for `COc1cccc(N2CC(C(=O)N3CCC(CSc4nccn4C)CC3)CC2=O)c1` (centres undefined)?
GIRK2 act: inactive

What do the screens show for `CSc1ccc(CNC(=O)c2cn(-c3ccc(Cl)cc3)nn2)cc1`?
GIRK2 act: inactive

How did COCCCNC(=O)CSc1nc(-c2ccc(OC)c(OC)c2)[nH]c1-c1ccc(F)cc1 do in these assays?
GIRK2 act: inactive

How did O=C(CSc1nc2ccccc2c2ccccc12)NCc1ccco1 do in these assays?
GIRK2 act: inactive

How did COC(=O)CSc1nc2c(c(=O)[nH]c(=O)n2C)n1C/C=C(/C)Cl do in these assays?
GIRK2 act: inactive

How did Cc1ccc(NC(=O)CSc2cc(C)nc(-c3ccc(F)cc3)n2)c(F)c1 do in these assays?
GIRK2 act: inactive

What do the screens show for `COc1ccc(NC(=O)CSc2cc(-n3nc(C)cc3C)ncn2)cc1`?
GIRK2 act: inactive
